Bead autofluor: compound fluorescence in toxin protease inhibitor counterscreen; compound autofluorescence counterscreen, microsphere flow cytometry; stronger effect = higher value; fluorescence intensity (no concentration beside the values); 3.1% of 360,000 active; AID 624483;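 active = at least 3 SD above the mean of all compounds, about 16000 in these data; inconclusive = too few beads counted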;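 note: 100 nL of 1 mM stock went into each well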
RN4220 kill: growth inhibition of S. aureus RN4220, primary screen, OD600. 16 h. inhibition, % (test concentration not listed). 0.33% of 330,000 active. AID 1259311, 2017;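 active = z-score of -3 or lower and OD600 up to 0.18 on both plates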;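 note: plate controls were untreated cells for no effect and reference antibiotic for full effect; stock transfer was 100 nL into about 80 µL; one replicate is shown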
Sa ugtP lethal: growth inhibition of ugtP-null S. aureus, primary screen, RN4220 ugtP deletion, OD600 | 16 h; some inactives read as strong as hits | growth inhibition, % (test concentration not listed) | 0.54% of 330,000 active | AID 1259309, 2017;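 active = z-score under -3 and OD600 up to 0.15 on both plates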;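 note: plate controls were untreated wells for no effect and antibiotic for full effect; wells of about 80 µL received 100 nL stock; the first replicate is given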
Mtb hypoxia rep: PubChem AID 1159583 | M. tuberculosis hypoxia-regulated fluorescent reporter, fluorescence | fluorescence inhibition, % (test concentration not listed) | 0.1% of 300,000 active;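 active = 35 to 45% if threefold the growth effect, above 45% if 1.5-fold the growth effect; inactive = the rest, general growth blockers included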;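 note: wells of about 50 µL received 100 nL stock; 0% = vehicle wells and 100% = reference inhibitor wells; whole bacteria with a GFP reporter of the hypoxia response; strong numbers were not always called active; many hits fall short of the cut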
BJeLR viability: MLPCN primary cell-based screen for lethality selective to Ras in HRASV12 cells; 0.17% of 300,000 active; inhibition, % (test concentration not listed); BJeLR (HRASV12) viability, CellTiter-Glo ATP luminescence, 48 h; reference of the scale not given here; AID 1554, 2009;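 active = replicate mean above 50%; inconclusive = above 50% but judged a plate artefact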;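 note: 50 nL library stock added to about 25 µL; numbers are from one replicate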
PrP UTR inh: inhibition of PrP 5' UTR reporter expression; cell-based PrP 5' UTR mRNA reporter, plate reader; inhibition, % (no concentration beside the values); 0.35% of 340,000 active; AID 488862, 2010;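 active = every replicate at 50% or more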;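 note: 0 = median of the neutral control wells; tested in H4 reporter cells; numbers are from one replicate; inactives centre near -14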
Mtb hypoxia rep growth: recorded beside Mtb hypoxia rep, whose call it bears; growth inhibition, %; measured here: M. tuberculosis growth (absorbance);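 0% = vehicle and 100% = reference antibiotic; read after six days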
Active calls of the source: *; ? = inconclusive; nt = no result given.

SMILES	Bead autofluor	RN4220 kill	Sa ugtP lethal	Mtb hypoxia rep	Mtb hypoxia rep growth	BJeLR viability	PrP UTR inh
Cc1ccc(C(=O)N2CCN(c3ccc(NC(=O)COc4ccccc4C)cc3)CC2)cc1	3088	14	14	-5	7	5	12
Cc1ccc(/C(N)=N/OC(=O)CCC2CCCC2)cc1	3714	6.4	25	3	-2	7	-26
O=C(CNC(=O)c1ccc2c(c1)OCCO2)NN=Cc1ccc(Cl)cc1	nt	4.2	4	-1	8	nt	nt
O=C(Cn1nnc2ccccc21)N1CCCCC1	3715	4.2	-3	4	1	-4	-65
O=C(CSc1ccc(-c2cccc([N+](=O)[O-])c2)nn1)N1CCCCC1	4742	-3.8	1	-2	-19	1	-20
Cc1cc(=O)n2c(n1)OC(CO)C2 (stereo not drawn)	9341	2.2	1	15	11	4	4
CCC(C)(C)n1nnnc1C(c1ccccc1F)N1CCN(C(=O)c2ccco2)CC1 (stereo not drawn)	3661	6.2	3	11	7	-9	-12
COC(=O)c1ccc(NC(=O)c2ccc(CN3CCOCC3)cc2)cc1	16430*	5.3	12	1	-2	1	-16
CCOc1ccc(-n2c(C)nc3cc(C(=O)NCCCN4CCOCC4)ccc32)cc1	3001	-2.1	8	nt	nt	-6	-37
Cc1csc(NC(=O)CSc2nccn2Cc2ccco2)n1	nt	6.8	15	8	-1	-3	-19
Cc1cccc(-n2c(O)c(/C=C/C=Nc3ccccc3)c(=O)[nH]c2=O)c1	2805	0.4	0	-3	-2	5	-19
Cc1cc(O)cc(=O)n1Cc1ccco1	3275	12	2	0	9	1	-23
CC(C)(C)OC(=O)NCCCCCc1nnc(SCC(N)=O)o1	4320	0.0	0	8	17	5	-10
COc1ccc(C(=O)NCc2csc(-c3cccs3)n2)cc1	3404	10	10	-2	-13	-9	-7
Cc1nc(C)c(C(=O)NCc2ccc(Cl)cc2)o1	11582	1.5	1	-1	4	5	-3
CC1Cc2ccccc2N1C(=O)c1ccc(Br)o1 (stereo not drawn)	4060	nt	nt	nt	nt	8	-77
COCC(=O)Nc1c(C(=O)Nc2cccc(OC)c2)oc2ccccc12	11133	3.3	-8	1	-2	0	-87
CC(=O)c1ccc(NC(=O)c2cc3nc4c(c(C(F)(F)F)n3n2)CCCC4)cc1	nt	3.8	-5	-9	0	2	nt
O=C(CSc1nnc2ccccn12)NC(=O)c1cccc([N+](=O)[O-])c1	3538	0.7	5	-2	9	nt	-11
COc1ccc(CCn2c(-n3nc(C)cc3C)nc3c2c(=O)[nH]c(=O)n3C)cc1	4572	1.0	-4	nt	nt	-10	28
O=C(c1ccc(F)cc1)C(CCCCCC(CN1CCOCC1)C(=O)c1ccc(F)cc1)CN1CCOCC1 (stereo not drawn)	nt	4.2	-1	nt	nt	1	nt
Cc1ccc(C(=O)NCc2ccc(N3CCN(C)CC3)cc2)cc1C	4362	1.1	3	-6	2	-8	-8
CCN1CCN(c2nc(Nc3ccc(NC(C)=O)cc3)nc(Nc3ccc(NC(C)=O)cc3)n2)CC1	4569	1.0	7	25	4	1	-12
Cc1n[nH]c(=O)nc1NCc1ccccc1	?	5.2	6	5	5	nt	-39
CCCC(=O)Nc1cc(-c2nn(C)c(=O)c3ccccc23)ccc1OC	?	2.0	4	-11	-4	4	0
CCC(C)(C)NC(=O)C(c1ccc(C)cc1)N(Cc1cccs1)C(=O)c1ccc2c(c1)OCCO2 (stereo not drawn)	13297	-0.1	1	0	10	5	-6
O=S(=O)(c1ccc(Cl)c(C(F)(F)F)c1)N1CCN(CC(O)COc2ccccc2F)CC1 (stereo not drawn)	3943	5.3	-2	-3	5	-2	-22
COc1ccc(NS(=O)(=O)c2ccc(C)c(C(=O)NC3CCN(Cc4ccccc4)CC3)c2)cc1	5092	0.5	-1	-6	1	-8	1
COc1ccc(Cn2nnnc2C(c2ccc(N(C)C)cc2)N2CCC(C(N)=O)CC2)cc1 (stereo not drawn)	3766	6.1	0	3	9	-10	-9
O=[N+]([O-])c1ccc(Sc2cc[n+]([O-])c3ccccc23)c([N+](=O)[O-])c1	6091	1.6	8	13	1	1	-33
NC(=S)Nc1ccc2cn[nH]c2c1	4433	0.7	11	3	10	-5	-16
Cc1ccc(C)c(OCc2cc(C(=O)N3CCN(C(=O)c4ccco4)CC3)no2)c1	6086	4.2	9	12	3	0	-49
COc1ccc(/C=N/NC(=O)Cc2cccs2)cc1	6447	nt	nt	nt	nt	3	-32
O=C(CN1CCN(c2ccccc2)CC1)Nc1ccccc1Sc1ccccc1	2454	-8.0	-5	10	3	3	-10
CCOC(=O)C(=CNc1ccc(C(F)(F)F)cc1)C(=O)OCC	4248	1.5	8	16	1	-4	-8
COc1ccccc1CNC(=O)c1cc(=O)c2ccccc2o1	4511	2.1	4	5	9	6	-8
C[C@]12CCC(=O)CC1CCC1C2CC[C@@]2(C)C1CC[C@@]21CCO1 (stereo partly drawn)	3583	6.3	13	4	18	4	-1
Cc1cc(C)c(C(=O)NCCCN2CCOCC2)c(C)c1	4314	2.9	-1	11	0	-3	-6
O=C(Cn1cnc([N+](=O)[O-])n1)NN=Cc1ccc2ccccc2c1	nt	-5.5	18	13	7	nt	nt
O=C(NCCN1CCOCC1)/C(=C\c1ccccc1F)NC(=O)c1ccccc1	6431	-0.6	-3	0	-13	7	-13
CC(=O)N1c2ccc(S(=O)(=O)NCCC(=O)Nc3ncccc3C)cc2CC1C (stereo not drawn)	5439	2.3	7	16	2	1	-16
COCCn1nnnc1CN1CCN(C(=O)c2ccco2)CC1	3554	1.4	5	4	2	-5	-21
NC(=S)NN=C1CC(c2ccc3c(c2)OCCCO3)Oc2ccc(F)cc21 (stereo not drawn)	nt	6.4	3	12	10	nt	nt
CCOc1ccc(N(CC(=O)N/N=C/c2cccnc2)S(C)(=O)=O)cc1	2452	nt	nt	nt	nt	-8	2
COc1ccccc1NC(=O)Cc1csc(N)n1	12659	6.0	3	12	0	-4	-27
O=[N+]([O-])c1ccccc1CS(=O)(=O)c1ccccc1	3103	5.2	3	16	6	3	-10
COc1ccccc1NS(=O)(=O)c1cccc(C(=O)OCC(=O)NC2CC2)c1	5553	1.5	3	1	6	-1	8
Cc1ccccc1-c1cc(C(=O)NCc2ccc(OC(F)(F)F)cc2)n(CC2CC(c3cccnc3)=NO2)n1 (stereo not drawn)	2999	-7.8	2	18	11	nt	0
CN(C(=O)COC(=O)c1cccc(S(=O)(=O)N2CCOCC2)c1)C1CCS(=O)(=O)C1 (stereo not drawn)	6971	1.1	0	7	2	-7	-5
COc1cc2ccccc2cc1C(=O)N(CCN(C)C)c1nc2c(C)cccc2s1	5309	-12	-20	-12	7	-6	-6

(listing goes on)
SMILES	Bead autofluor	RN4220 kill	Sa ugtP lethal	Mtb hypoxia rep	Mtb hypoxia rep growth	BJeLR viability	PrP UTR inh
COc1ccccc1NC(=O)CSc1sc2c(O)cc(=O)[nH]c2c1C#N	5025	1.4	-1	6	4	1	-19
CCN1C(=NCCc2cccnc2)N[C@@H](c2ccccc2)[C@H](C(=O)OC)[C@H]1C	3457	nt	nt	nt	nt	0	-22
CCC1CC(C)(C(=O)Nc2ccc(S(N)(=O)=O)cc2)OC1=O (stereo not drawn)	10294	-2.2	0	8	-7	-7	-31
CC(C)Oc1ccc(S(=O)(=O)N2CCOCC2)cc1NC(=O)c1cc([N+](=O)[O-])ccc1N1CCOCC1	?	1.9	5	0	-3	-5	-8
Cc1ccc(C)c(/C(O)=C2/C(=O)C(=O)N(CCN3CCOCC3)C2c2ccc(C)o2)c1 (stereo not drawn)	2833	9.0	6	17	10	-2	-13
CCCCN(C(=O)C1CCCC1)c1c(N)n(CCC)c(=O)[nH]c1=O	4611	2.7	5	0	-3	nt	-14
COC(=O)C1CCN(C(=O)C23CCC(C)(C(=O)O2)C3(C)C)CC1 (stereo not drawn)	3255	9.4	11	4	8	15	-23
CCOC(=O)C1CCCN(S(=O)(=O)c2c(C)c(C)cc(C)c2C)C1 (stereo not drawn)	2501	2.5	1	nt	nt	9	-16
COc1ccc(OC)c(NC(=O)c2nc3ccccc3s2)c1	4083	7.1	15	-2	2	6	-48
COc1cc(/C=N/Nc2ncc(C(F)(F)F)cc2Cl)cc(OC)c1OC	1995	nt	nt	nt	nt	7	-8
CCOc1ccccc1C(=O)N1CCCCC1C (stereo not drawn)	3075	5.1	6	12	13	-23	-13
CCN(c1ccc(OC)cc1)S(=O)(=O)c1ccc2c(c1)CCN2C(=O)CCC(=O)O	16864*	6.6	2	3	5	-6	-2
CCOC(=O)C(C(=O)OCC)C(C(=O)OCC)N1CCOCC1 (stereo not drawn)	2694	nt	nt	nt	nt	28	-10
O=C(O)c1ccc([N+](=O)[O-])cc1-c1cc([N+](=O)[O-])ccc1C(=O)O	4020	2.1	3	9	5	nt	-15
CC(=O)Nc1ccc(S(=O)(=O)N/N=C/c2ccc(C)o2)cc1	4165	nt	nt	nt	nt	-3	-12
CCCC(=O)NCc1nc2ccccc2n1CC(=O)c1ccccc1	2893	-2.8	-1	3	-9	-5	-19
COc1ccc(N(CC(=O)Nc2c(C)n(C)n(-c3ccccc3)c2=O)S(=O)(=O)c2ccc(C)cc2)cc1	3252	4.5	-3	11	1	7	-15
Cc1cccc(CSc2ccc3nnc(-c4cccnc4)n3n2)c1	2457	nt	nt	nt	nt	-16	-15
Cn1c(N)c(C(=O)COC(=O)/C=C/c2ccc(F)cc2)c(=O)n(C)c1=O	3236	5.9	3	0	-3	nt	-64
Cc1cccc(Cc2nnc(CCC(=O)NCc3cn4ccccc4n3)o2)c1	5004	2.1	6	2	5	9	-16
CCOC(=O)c1cccc(NC(=O)CCNS(=O)(=O)c2cccc3nonc23)c1	5109	1.9	3	-3	4	-16	-13
Cc1ccc(-c2ccc(=O)n(CC(=O)NCCCN3CCCCC3C)n2)cc1 (stereo not drawn)	6814	-0.6	6	6	1	2	-4
CCN(CC)Cc1c(C(=O)NN=C(C)c2ccncc2)nnn1-c1nonc1N	nt	-2.6	12	-3	1	nt	nt
O=C(C1CC1)N1CCCC(c2ccc(Cl)cc2)=N1	2668	4.9	-3	1	10	-3	-10

Three entries drawn at random from those above, as already listed:
SMILES	Bead autofluor	RN4220 kill	Sa ugtP lethal	Mtb hypoxia rep	Mtb hypoxia rep growth	BJeLR viability	PrP UTR inh
Cc1cc(O)cc(=O)n1Cc1ccco1	3275	12	2	0	9	1	-23
COc1cc(/C=N/Nc2ncc(C(F)(F)F)cc2Cl)cc(OC)c1OC	1995	nt	nt	nt	nt	7	-8
Cc1nc(C)c(C(=O)NCc2ccc(Cl)cc2)o1	11582	1.5	1	-1	4	5	-3
